Screening data (PubChem BioAssay)
VDR inhibitor = blocks the human vitamin D receptor. P11473. VDR-SRC2-3 peptide fluorescence polarization, 2 h. Potency, µM, inactives show max response, negative = inhibition, usual class: inhibitors. 400,000 compounds, 0.93% hits. AID 504847; active means well fitted inhibition curve with a large enough effect; inconclusive means small, poorly fitted or top-dose-only effect, or another doubt; inactive means no such curve, though single readings can be large or run the other way; further: series mostly up to about 120 µM
Target sequence (P11473 whole entry, looked up): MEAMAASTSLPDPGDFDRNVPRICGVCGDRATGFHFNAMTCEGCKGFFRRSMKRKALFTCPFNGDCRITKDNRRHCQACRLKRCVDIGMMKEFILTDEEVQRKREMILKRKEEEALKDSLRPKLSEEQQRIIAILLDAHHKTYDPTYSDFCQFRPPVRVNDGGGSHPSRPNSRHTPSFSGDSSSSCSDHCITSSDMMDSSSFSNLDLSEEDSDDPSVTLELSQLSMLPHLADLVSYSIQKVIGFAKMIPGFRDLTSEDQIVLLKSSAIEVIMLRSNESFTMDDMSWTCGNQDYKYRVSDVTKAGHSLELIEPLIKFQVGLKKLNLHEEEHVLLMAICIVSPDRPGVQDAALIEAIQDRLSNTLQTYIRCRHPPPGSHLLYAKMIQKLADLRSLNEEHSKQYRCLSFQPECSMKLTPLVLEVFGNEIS
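Reagent solutions, kept cold and dark, are dispensed first; compounds are then pinned in at 23 nl, plates briefly spun, and incubated 2 h at ambient temperature. Inhibition of VDR–SRC2-3 peptide binding is read by fluorescence polarization.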
* marks the source's active call; other numbers are inactive results; ? = inconclusive; & = joins results of further samples; [ ] = remark or other dose. On the % scale 0 is the no-effect control and ±100 the full control effect; potency means the concentration at half of the fitted maximal effect. A portion of the library (hit frequency here may not be typical).

VDR inhibitor | Structure
-22.0% | O=C(NNC(=O)[C@H]1CC=CC[C@H]1C(=O)O)c1ccc(Cl)cc1Cl
6.6% | CCN(CC)S(=O)(=O)c1cc(NC(=O)CSCc2c(C)noc2C)ccc1C
6.9% | Cc1cc2ncn(CC(C)C)c2cc1C
1.0%&-2.4% | CC1=CC(C)=Nc2ccc(C)cc2N1
0.5% | CCN1CCN(c2ccc(S(=O)(=O)N3CCOCC3)cc2NC(=O)CC(NC(C)=O)c2ccccc2)CC1 (stereo not given)
8.7% | Cc1cc(-c2cc(C(=O)Nc3ccccc3)on2)nc(NCC2CC2)n1
-7.9% | Clc1ccc(-c2cn3c(n2)-c2ccccc2C3)cc1Cl
12.0% | O=C(Nc1cnn(Cc2ccc(Cl)cc2)c1)C1CCCC1
5.2% | O=C(C1CCCN(S(=O)(=O)c2ccc(F)cc2)C1)N1CCCC1 (stereo not given)
22.0% | CCc1ccccc1N(CC(=O)NCc1ccco1)C(=O)c1snc(C(N)=O)c1N
0.2% | N#Cc1ccccc1S(=O)(=O)N1CCN(C(=O)c2cccc(S(=O)(=O)N3CCCC3)c2)CC1
-2.4% | CCOc1ccc(NC(=O)c2nccnc2CO)cc1
-12.0%&-10.6% | N#Cc1cc2[nH]c(=O)c(=O)[nH]c2cc1[N+](=O)[O-]
1.9% | CC(=O)C1=C(O)C(=O)N(Cc2ccccc2)C1c1ccc(N(C)C)cc1 (stereo not given)
15.3% | O=C(NC1CCCCC1)c1ccc2c(c1)N(Cc1ccccc1)C(=O)c1ccccc1S2
-12.2% | Cc1ccc(C)c(Cn2c3ccccc3c3cnn(CC(=O)NCCCN4CCCCC4)c(=O)c32)c1
-17.3% | COc1cccc(NC(=O)CN(C)C(=O)C(CCSC)NC(=O)c2ccco2)c1 (stereo not given)
-10.4% | CC(=O)c1ccc(NC(=S)N2CCCC(CO)C2)cc1 (stereo not given)
13.4% | Cc1ccc(-n2c(SCC(=O)OC(C)C)nnc2-c2ccncc2)cc1
-14.0% | Cc1ccc(OCCSc2nc3ccccc3n2CC(=O)O)cc1
21.6% | Cc1ccc(C2(C)NC(=O)N(CC(=O)Nc3ccc4c(c3)OCO4)C2=O)cc1 (stereo not given)
12.5% | CCC(=O)NNc1ccc(Br)cc1
-16.2% | CC1=C(C(=O)Nc2ccccc2)C(c2ccco2)NC(=S)N1 (stereo not given)
-18.1% | C[C@@H]1CN([C@@H](C)CO)C(=O)Cc2cc(NC(=O)Nc3ccc4c(c3)OCO4)ccc2O[C@@H]1CN(C)C(=O)NC1CCCCC1
8.1% | COc1ccccc1N1CCN(C2CCCN(C(=O)CCn3cncn3)C2)CC1 (stereo not given)
-15.3% | Cc1cccc(-c2nc3c(c(SCC(=O)N(C)C)n2)CCCC3)c1
-12.2% | CC(=O)Nc1ccc(S(=O)(=O)Nc2nnc(C(C)C)s2)cc1
5.0% | O=C(C1CCC(=O)N(C2CC2)C1)N(CCO)Cc1ccccc1 (stereo not given)
19.5% | O=C(O)CCc1nc2ccccc2n(CCc2ccccc2)c1=O
? | Cc1c(C(=O)N(C)CCC#N)oc2ccc(S(=O)(=O)N3CC(C)CC(C)C3)cc12 (stereo not given)
-14.3% | CCC(C)(C)n1nnnc1C(c1ccc(C)cc1)N1CCN(Cc2cccnc2)CC1 (stereo not given)
-9.2% | S=c1[nH]nc(-c2ccccc2)o1

Reformatted: results already given
SMILES	VDR inhibitor
S=c1[nH]nc(-c2ccccc2)o1	-9.2%
O=C(O)CCc1nc2ccccc2n(CCc2ccccc2)c1=O	19.5%
Cc1c(C(=O)N(C)CCC#N)oc2ccc(S(=O)(=O)N3CC(C)CC(C)C3)cc12 (stereo not given)	?
O=C(C1CCC(=O)N(C2CC2)C1)N(CCO)Cc1ccccc1 (stereo not given)	5.0%
CCC(C)(C)n1nnnc1C(c1ccc(C)cc1)N1CCN(Cc2cccnc2)CC1 (stereo not given)	-14.3%

Following part.
VDR inhibitor | Structure
11.5% | Cc1ccc(NC(=O)C(=O)NCC2(c3ccccc3)CCCC2)cc1Cl
-1.5% | COc1ccc(NS(=O)(=O)c2cccc(C(=O)N3CCCCCC3)c2)cc1
-9.8%&16.5% | Cc1ccc2c(c1)c1c(c(=O)n(-c3ccccc3)c(=O)n1CC(=O)NCC1CCCO1)n2C (stereo not given)
18.0% | CCC(C)(C(=O)NC1CCCCC1)N(C(=O)c1ccccn1)c1ccccc1 (stereo not given)
1.9% | O=C(N/N=C/c1coc2ccccc2c1=O)c1cccc([N+](=O)[O-])c1
-3.2% | Cc1cccc(-c2nnc(NC(=O)c3ccc(N4C(=O)CCC4=O)cc3)s2)c1
17.6% | CCOC(=O)C1=C(C)OC(N)=C(C#N)C1c1ccsc1 (stereo not given)
18.9% | COCc1cc(=O)[nH]c(-c2ccc(C(F)(F)F)cc2)n1
11.6% | Fc1ccccc1Nc1nc(N2CCOCC2)nc(N2CCOCC2)n1
15.4% | CSc1nc2c(c(=O)[nH]1)C(c1ccccc1Cl)CC(=O)N2 (stereo not given)
7.8% | Nc1cc(=O)nc(SCC(=O)Nc2ccc(F)cc2)n1-c1ccc(Cl)cc1
7.1% | CCCSc1ncc(Cl)c(C(=O)Nc2sc3c(c2C(N)=O)CCCC3)n1
5.5% | CCc1cccc(C)c1NC(=O)COCc1cc(-c2ccc3c(c2)OCO3)on1
10.6% | CCN1CCC(N(Cc2ccc3c(c2)OCO3)C(=O)Nc2ccccc2OC)CC1
? | N#C/C(=C\c1cccs1)C(=O)Nc1nccs1
-4.1% | Cc1cc(C)c(C#N)c(SCC(=O)NN2CC(=O)N(c3ccccc3F)CC2=O)n1
-9.1% | COc1ccccc1C(=O)NCCC(=O)NCC(c1ccc(F)cc1)N1CCOCC1 (stereo not given)
11.3% | CCOc1ccc(NC(=O)C2CC(=O)N=C(N)S2)cc1 (stereo not given)
-5.4% | COc1ccccc1-n1cc(-c2ccc(Cl)cc2)[nH]c1=O
2.3% | COc1ccccc1CNC(=O)COC(=O)c1cccnc1SCC(=O)NCc1ccccc1OC
17.5% | Cc1ccc(C2(c3noc(CN(C)Cc4cnn(C)c4)n3)CCCC2)cc1
8.8% | C/C(=N\NC(=O)c1ccncc1)c1cccc(NC(=O)c2ccc(C(C)(C)C)cc2)c1
-7.5% | Cn1c(N)c(C(=O)COC(=O)/C=C/c2cccc(Br)c2)c(=O)n(C)c1=O
6.9% | Oc1c(C(c2ccc(Cl)cc2Cl)N2CCOCC2)sc2nc(-c3ccco3)nn12 (stereo not given)
19.1% | CCCC(=O)NCC(c1ccc2c(c1)OCO2)N1CCOCC1 (stereo not given)
-10.2% | CCCC(C)NC(=O)c1ccc(F)cc1 (stereo not given)
-10.8% | COc1ccc(-n2ccnc2SCC(=O)NCc2ccco2)c(OC)c1
19.1% | Cc1ccc(SC2CC(=O)N(c3ccc4c(c3)OCCO4)C2=O)cc1 (stereo not given)
-1.2% | COc1cccc(NC(=S)NC(=O)/C=C/c2ccc(F)cc2)c1
-3.6% | COc1cc(NC(=S)NC(=O)C(C)C)ccc1NC(=O)c1cc2ccccc2o1
-22.8% | Cc1ccc(S(=O)(=O)Nc2cnc3ccccc3c2)cc1
-0.1% | Nc1nonc1-n1nnc(C(=O)N/N=C/c2ccncc2)c1-c1cccs1
-4.7% | O=C(CCN1C(=O)c2ccccc2S1(=O)=O)Nc1ccc(F)cc1F
4.4% | Cc1ccc(S(=O)(=O)CC(=O)N2CCN(c3ccc([N+](=O)[O-])cc3)CC2)cc1
13.9% | Cc1nc(-c2cccc(NS(C)(=O)=O)c2)cs1
-21.5% | Cc1ccc(NC(=O)CSc2nnc(CNC(=O)c3ccco3)n2C)cc1C
-0.4% | C[C@H]1COC(=O)[C@@H](Cc2ccc(F)cc2)C/C=C\C[C@@H](CC(=O)NCCO)C(=O)N1
-22.3% | O=C(O)c1ccccc1C(=O)N1CC=C(c2ccccc2)CC1
-8.8% | O=C(CCSc1ccc(Cl)cc1)NC1CCCCC1
-8.9% | COc1ccc(CN(CC(=O)NC2CCCCC2)C(=O)CCCC(=O)Nc2ccccn2)cc1
12.0% | CCC(C)NC(=O)C1=CC(c2ccc3c(c2)OCO3)=NS(=O)(=O)N1C (stereo not given)
-7.9% | O=C(NCc1ccccc1)c1ccc(NC(=O)N2CCSc3ncccc32)cc1
-4.8% | O=C1c2ccccc2C(Nc2ccc(Cl)cn2)N1c1cccnc1 (stereo not given)
-9.1% | Cc1ccc(C(=O)Nc2ccc(F)c(S(=O)(=O)N3CCOCC3)c2)s1
10.2% | COc1ccccc1NC(=O)c1ccccc1NS(C)(=O)=O
-9.0%&-3.9%&-0.3%&-2.7%&5.7%&2.3% | O=C(O)CCC/C=C\C[C@@H]1[C@@H](/C=C/[C@@H](O)COc2cccc(Cl)c2)[C@H](O)C[C@@H]1O
6.6% | CCN1CCN(C(=O)c2ccccc2N(Cc2ccccc2)S(C)(=O)=O)CC1
-8.8% | CC(C)C(NC(=O)C1CCCCC1)C(=O)N1CCN(c2ccc(F)cc2)CC1 (stereo not given)
9.6% | Cc1ccc(-c2nnc(SCC(=O)NCCC(C)C)nc2-c2ccc(C)cc2)cc1
1.5% | CN1CCN(C(=O)CSc2nnc(COc3ccccc3)o2)CC1
? | COC(=O)Nc1sc2c(c1C(N)=O)CCCCCC2
5.9% | COc1ccccc1NC(=O)Cn1nc(C(F)(F)F)c2c1CCCC2
12.8% | COC(=O)c1ccc2c(c1)N(Cc1nc(-c3ccc(Cl)cc3)oc1C)C(=O)C1CCCN21 (stereo not given)
-12.1% | CCOc1ccc(N2C(=O)CC(NCCNc3ccc(C(=O)c4cccs4)cc3)C2=O)cc1 (stereo not given)
11.9% | O=C(O)CCC(=O)Nc1ccc(-c2nc3ccc(C(=O)c4ccccc4)cc3[nH]2)cc1
-28.1% | Cc1ccc(C(=O)NCCc2cccc(Cl)c2)cc1[N+](=O)[O-]

Later entries
VDR inhibitor | Structure
1.7% | C/C(O)=C(\C#N)P(=O)(c1ccccc1)c1ccccc1
21.3% | Cc1cccc(C(=O)Nc2cccc(C(=O)OCc3cc(=O)n4ccsc4n3)c2)c1
-18.8% | CCCn1nc(C(=O)Nc2cc(S(=O)(=O)Nc3ccc(OC)cc3)ccc2O)c2ccccc2c1=O
4.0% | OCCn1c(C(F)(F)F)nc2ccccc21
-9.6% | Cc1ccc(S(=O)(=O)Cc2ccc(C(=O)OCc3ccccc3)cc2)cc1
-14.5% | CCOc1ccc(C(=O)Nc2ccc3oc(-c4cccc5ccccc45)nc3c2)cc1
5.5% | Cc1cnc2cc(Cl)ccc2c1SCC(=O)O
2.0% | Cc1ccccc1NS(=O)(=O)c1ccc2[nH]c(=O)[nH]c2c1
-13.2% | COn1c(SCc2ccc(C)cc2C)nc2ccccc2c1=O
? | CCCC(C)c1nnc(NC(=O)C2CC(=O)N(CCc3ccc(F)cc3)C2)s1 (stereo not given)
-14.9% | O=C(CSc1n[nH]c(-c2ccco2)n1)Nc1ccccc1F
-23.2% | O=C(COC(=O)C1CCCCC1)Nc1cc([N+](=O)[O-])ccc1F
-0.6% | CCC(C)c1ccc(NC(=O)CC(C)=O)cc1 (stereo not given)
10.0% | CCOc1cc(C(=O)Nc2ccc(C(=O)NCCN(CC)CC)cc2)ccc1OCC(=O)N1CCOCC1
-5.8% | CC(=O)Nc1ccc(S(=O)(=O)NC2(C(F)(F)F)C(=O)Nc3c2c(=O)n(C)c(=O)n3C)cc1 (stereo not given)
-13.3% | COc1cccc(C(=O)Nc2c3c(nn2-c2ccc([N+](=O)[O-])cc2)CS(=O)(=O)C3)c1

The last two entries of the part above lead into the next.
VDR inhibitor | Structure
-5.8% | CC(=O)Nc1ccc(S(=O)(=O)NC2(C(F)(F)F)C(=O)Nc3c2c(=O)n(C)c(=O)n3C)cc1 (stereo not given)
-13.3% | COc1cccc(C(=O)Nc2c3c(nn2-c2ccc([N+](=O)[O-])cc2)CS(=O)(=O)C3)c1
8.5% | Cc1cc(C)c(C#N)c(OCC(=O)c2ccc(Br)cc2)n1
147.6%[activator] | CSCCC(NS(=O)(=O)c1ccc(C)cc1)C(=O)NNC(=O)c1csc(N2CCOCC2)n1 (stereo not given)
17.8µM* | O=C(CCN1CCN(c2ccccc2F)CC1)c1ccc(Br)cc1
8.0% | COc1cc2c(cc1OC)n(CC(=O)c1ccc(C)cc1C)c(=O)n1nc(CCn3nc(C)cc3C)nc21
0.8% | CCn1c(CNc2cccc(C(F)(F)F)c2)n[nH]c1=S
3.6% | COCCCN=Cc1c(-c2ccccc2)[nH]n(-c2nc3ccccc3s2)c1=O
-7.8% | CC(C)(C)c1ccc(NC(=O)N2CCN(c3ccc([N+](=O)[O-])cn3)CC2)cc1
-6.6% | CC1C(=O)NN=C1C(=O)N/N=C/c1cccs1 (stereo not given)

A draw from above in order of length of the SMILES, rising:
VDR inhibitor | Structure
-8.8% | O=C(CCSc1ccc(Cl)cc1)NC1CCCCC1
-12.0%&-10.6% | N#Cc1cc2[nH]c(=O)c(=O)[nH]c2cc1[N+](=O)[O-]
-23.2% | O=C(COC(=O)C1CCCCC1)Nc1cc([N+](=O)[O-])ccc1F
-8.8% | CC(C)C(NC(=O)C1CCCCC1)C(=O)N1CCN(c2ccc(F)cc2)CC1 (stereo not given)
-7.8% | CC(C)(C)c1ccc(NC(=O)N2CCN(c3ccc([N+](=O)[O-])cn3)CC2)cc1

Remaining list, next part:
VDR inhibitor | Structure
-4.7% | COc1ccc(C(=O)NC(C)c2cccnc2)cc1S(=O)(=O)N(C)Cc1ccccc1 (stereo not given)
-11.6% | COC(Cn1c2c(c3cc(C)ccc31)CCCC2NCc1ccccc1)OC (stereo not given)
3.8% | CCCOc1ccc(C(=O)CCNc2ccc(C)c(Cl)c2)cc1
-2.2% | CC(=O)Nc1ccc(-n2nnnc2SCC(=O)NC2CCCC2)cc1
-4.7%&10.7% | CCCc1ccc(NC(=O)C2CCN(c3cnccn3)CC2)cc1
-1.5% | CCOC(=O)c1cc(-c2ccccc2)n(-c2cccc(C(=O)NC(C)CC)c2)c1C (stereo not given)

VDR inhibitor: entries above that show a hit
VDR inhibitor | Structure
17.8µM* | O=C(CCN1CCN(c2ccccc2F)CC1)c1ccc(Br)cc1
